# Screening results: PubChem, ICCB-Longwood Screening Facility, Harvard Medical School
# HCMV NEC inh – cytomegalovirus nuclear egress complex inhibition. HTRF UL50-UL53 interaction, normalized percent inhibition. inhibition, % (concentration not given with the values). hit rate 0.15% among 190,000;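 active = both replicates at 50% or more, plus weaker picks with an unusually low signal ratio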;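 note: stock transfer was 100 nL into about 20 µL; 0% = negative control wells and 100% = wells with untagged competitor protein; inactives centre near -12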
# GIV-Gai inh – GIV-Galpha-i interaction inhibition; P08753; Galpha-i3/FITC-GIV peptide fluorescence polarization, 90 min; stronger effect = lower value; scaled: aluminum fluoride 0%, vehicle 100%; percent of control (FP), % (test concentration not listed); hit rate 0.42% among 210,000; AID 1224905;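 active = replicate mean at 85% of control or lower, very high polarization wells dropped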;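 note: wells of about 15 µL received 100 nL stock; the first replicate is given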
# Target sequence (P08753 whole entry, looked up): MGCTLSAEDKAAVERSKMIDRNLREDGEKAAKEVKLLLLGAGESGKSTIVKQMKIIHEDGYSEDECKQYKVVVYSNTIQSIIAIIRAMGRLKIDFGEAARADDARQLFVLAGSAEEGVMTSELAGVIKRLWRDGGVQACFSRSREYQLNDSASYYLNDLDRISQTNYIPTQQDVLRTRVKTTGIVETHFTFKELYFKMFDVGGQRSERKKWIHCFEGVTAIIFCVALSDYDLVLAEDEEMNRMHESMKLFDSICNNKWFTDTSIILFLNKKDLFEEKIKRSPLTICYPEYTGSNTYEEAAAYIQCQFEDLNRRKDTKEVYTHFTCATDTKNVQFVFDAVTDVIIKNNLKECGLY
# Sa growth inh – S. aureus growth inhibition; S. aureus RN4220 growth, OD600, 20 h, 42 °C; stronger effect = lower value; hit rate 0.53% among 170,000; relative growth, % (test concentration not listed);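 active = growth at 42 °C up to 50% and 20 or more points under that at 30 °C, or under 10% at both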;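 note: 300 nL library stock went into each well; scaled to the means of positive and negative controls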
# Sa growth inh second temp – also measured in Sa growth inh; calls as there; relative growth, %; measured here: growth at 30 °C;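 optical density after 20 h as mean of two plates; 100% = untreated growth and lower means inhibition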
# An asterisk follows results filed as active; . = no result given; & = joins results of further samples. An unsorted share of the library; any-hit rate near 0.79%.
# Start of the listing, in advance, 4 compounds:
# Field names: A = HCMV NEC inh; B = GIV-Gai inh; C = Sa growth inh; D = Sa growth inh second temp
Cc1cccc(-n2cnc3cc(C(=O)NC4CCCCCC4)ccc32)c1
  A: .	B: 107	C: 119	D: 73
NC(=O)C1CCN(c2nc(-c3ccccc3)nc3ccccc23)CC1
  A: 7	B: .	C: 105	D: 87
Cc1ccc(OCC(=O)Nc2ccccc2C(=O)N(C)C)cc1
  A: -21	B: 98	C: 105	D: 98
OCCNc1nc2ccccc2n1CN1CCN(c2ccccc2F)CC1
  A: -18	B: .	C: 107	D: 92

# This part in full, from the first entry:
# Field names: A = HCMV NEC inh; B = GIV-Gai inh; C = Sa growth inh; D = Sa growth inh second temp
Cc1cccc(-n2cnc3cc(C(=O)NC4CCCCCC4)ccc32)c1
  A: .	B: 107	C: 119	D: 73
NC(=O)C1CCN(c2nc(-c3ccccc3)nc3ccccc23)CC1
  A: 7	B: .	C: 105	D: 87
Cc1ccc(OCC(=O)Nc2ccccc2C(=O)N(C)C)cc1
  A: -21	B: 98	C: 105	D: 98
OCCNc1nc2ccccc2n1CN1CCN(c2ccccc2F)CC1
  A: -18	B: .	C: 107	D: 92
O=C(NCC1CCCO1)c1ccc(F)c2ccccc12 (stereo not given)
  A: -22	B: 100	C: 98	D: 94
O=C(O)COc1ccc(/C=C2\C(=O)NC(=S)N(c3ccc(Cl)cc3)C2=O)cc1Br
  A: -30	B: 73*	C: .	D: .
Cc1[nH]c2ccccc2c1CCN1C(=O)c2ccccc2C1=O
  A: -9	B: .	C: 106	D: 83
CN(C)c1ccc(N/C=C2/CCCC2=O)cc1
  A: .	B: 116	C: 107	D: 72
Cc1ccc(N2CC(NC(=O)C3CCCCC3)CC2=O)cc1C (stereo not given)
  A: .	B: 98	C: 106	D: 86
CCn1nc(-c2ccccc2)c(-c2ccccc2)c(C(=O)NCC2CCCO2)c1=O (stereo not given)
  A: 8	B: 107	C: .	D: .
CCn1cc(/C=C(\NC(=O)c2ccc(OC)cc2)C(=O)NCCCn2ccnc2)c2ccccc21
  A: -28	B: 108	C: 105	D: 83
CC(SC(=S)N1CCCCCC1)C(=O)O (stereo not given)
  A: -28	B: 101	C: 87	D: 88
Brc1ccc(Nc2c3c(nc4ncnn24)CCC3)cc1
  A: -1	B: 111	C: .	D: .
COc1cccc(C2CC(c3cccs3)=NN2S(=O)(=O)c2ccc(C)cc2)c1OC (stereo not given)
  A: -22	B: 99	C: .	D: .
CC(C)C1C(=O)Nc2ccc(S(=O)(=O)NC3CCCC3)cc21 (stereo not given)
  A: -25	B: 105	C: 94	D: 90
c1ccc(CC2COC(c3cccn3Cc3ccccc3)=N2)cc1 (stereo not given)
  A: -12	B: 100	C: 87	D: 80
Cc1ccc2c(CC(=O)NCC(=O)Nc3c(C)cccc3C)coc2c1
  A: 2	B: .	C: 112	D: 105
CCCn1c(C)cc(C(=O)CN(C)S(=O)(=O)c2ccc(F)cc2)c1C
  A: -20	B: .	C: 100	D: 91
CN1CCOCCOCCOCC1
  A: 3	B: 106	C: 98	D: 102
CC(C)(C)C1(O)CC(c2ccccc2)=NO1 (stereo not given)
  A: -14	B: 101	C: 96	D: 82
Cn1nnnc1SCC(=O)c1ccc(Br)s1
  A: -95	B: .	C: 85	D: 89
Cc1ccc(C)c(N2CCN(C3(c4ccccc4)C(=O)c4ccccc4C3=O)CC2)c1
  A: -6	B: 107	C: 100	D: 97
CN(C)c1ccc(-c2n[nH]c3c2C(=O)CCC3)cc1
  A: -4	B: .	C: 101	D: 78
COc1ccc(OC)c(CC2C(=O)Nc3ccccc32)c1 (stereo not given)
  A: -10	B: 98	C: .	D: .
Cc1cc(NC(=O)COC(=O)C2CSC3(C)CCC(=O)N23)no1 (stereo not given)
  A: -14	B: .	C: 81	D: 95

# In the list so far, these have a thiophene ring, fused or not:
# Field names: A = HCMV NEC inh; B = GIV-Gai inh; C = Sa growth inh; D = Sa growth inh second temp
COc1cccc(C2CC(c3cccs3)=NN2S(=O)(=O)c2ccc(C)cc2)c1OC (stereo not given)
  A: -22	B: 99	C: .	D: .
Cn1nnnc1SCC(=O)c1ccc(Br)s1
  A: -95	B: .	C: 85	D: 89

# Next entries follow:
# Field names: A = HCMV NEC inh; B = GIV-Gai inh; C = Sa growth inh; D = Sa growth inh second temp
Cc1cccc2nc(-c3ccco3)oc(=O)c12
  A: -2	B: 99	C: 106	D: 89
COc1cc(OC)c(NC(=O)c2c(C)nn(-c3ccccc3)c2-n2cccc2)cc1Cl
  A: .	B: 102	C: 100	D: 91
CCN(CC)c1ccc2c(c1)oc(=O)c1c(Cl)cc(=O)oc12
  A: 8	B: .	C: 118	D: 84
CCc1ccc(NC(=O)CSc2nc3c([nH]c4ccccc43)c(=O)n2C)cc1
  A: .	B: 105	C: 99	D: 87
CCCNC(=O)C1=C(C)C(=O)OC12CCN(S(C)(=O)=O)CC2
  A: -15	B: 99	C: 87	D: 92
Cc1ccc(NC(=O)c2sc3nc(-c4ccncc4)ccc3c2N)cc1
  A: 2	B: -53*	C: 95	D: 106
Cc1cccc(-c2nc(CNC(=O)C(C)(C)C)no2)c1
  A: 4	B: 107	C: .	D: .
CCOC(=O)c1c(NC(=O)CSc2cn(CCNC(=O)c3ccccc3OC)c3ccccc23)sc2c1CCC2
  A: 13	B: 102	C: 99	D: 92
CCSc1nc2c(c(=O)n1C)C1(CCCCC1)Cc1ccccc1-2
  A: -14	B: .	C: 92	D: 89
N#CCC(=O)N/N=C/c1ccc(OC2CSC2)cc1
  A: -27	B: 106	C: 127	D: 96
CCCCCC1/C(=N/OC(C)=O)CCC1CC(=O)OC (stereo not given)
  A: 3	B: .	C: 95	D: 100
CCn1c(C(=O)O)c(CC(=O)Nc2cc(Cl)c(OC)cc2OC)c2ccccc21
  A: -2	B: 108	C: .	D: .
Cc1ccc(Nc2cc(C(=O)NCc3cccs3)c3ccccc3n2)c(C)c1
  A: -4	B: 100	C: 102	D: 98
CCCN1C(=O)/C(=N\OCC(=O)N2N=C(c3ccc(Cl)cc3)CC2c2ccco2)c2ccccc21 (stereo not given)
  A: -10	B: .	C: 95	D: 93
Cc1ccc(Cn2c(SCc3ccc(C(=O)NCCc4ccccc4)cc3)nc3ccncc32)cc1
  A: -5	B: 100	C: 129	D: 112
COc1ccc2occ(C(=O)c3oc4ccccc4c3N)c2c1
  A: -12	B: 110	C: .	D: .
CCC(=O)N1CCN(c2ccc(N3CCOCC3)nn2)CC1
  A: -71	B: 103	C: 99	D: 88
O=C(c1ccc(F)cc1)n1cc(Cl)cn1
  A: -15	B: .	C: 91	D: 84
Cc1ccc(COC2CN(C(=O)C3CCC3)C2)cc1
  A: -8	B: 100	C: .	D: .
O=c1ccsn1Cc1ccccc1
  A: -2	B: 103	C: -0.8*	D: -0.3*
CCOc1cc(C2c3c(oc4ccc(F)cc4c3=O)C(=O)N2Cc2ccc(C)cc2)ccc1O (stereo not given)
  A: 20	B: 108	C: 98	D: 101
Cc1ccc(-c2nnc(SCc3ccccc3C)o2)cc1
  A: -4	B: 107	C: 100	D: 88
COc1cc(CCC(=O)NCc2ccc3c(c2)CCN3C(=O)c2ccc(F)cc2)cc(OC)c1OC
  A: .	B: 106	C: 137	D: 88
Cn1cc(/C=C(/C#N)c2ccc(C(=O)O)cc2)c2ccccc21
  A: -52	B: 111	C: 79	D: 47
COc1cccc(NC(=O)c2cc3cc4ccc(C)cc4nc3o2)c1
  A: -19	B: 100	C: 93	D: 76

# One compound at a time (already shown):
# CCCCCC1/C(=N/OC(C)=O)CCC1CC(=O)OC (stereo not given) as listed: HCMV NEC inh: 3; GIV-Gai inh: .; Sa growth inh: 95; Sa growth inh second temp: 100
# CCc1ccc(NC(=O)CSc2nc3c([nH]c4ccccc43)c(=O)n2C)cc1 as listed: HCMV NEC inh: .; GIV-Gai inh: 105; Sa growth inh: 99; Sa growth inh second temp: 87

# Shown as a hit in GIV-Gai inh, of those listed so far:
Structure | GIV-Gai inh | Sa growth inh second temp
O=C(O)COc1ccc(/C=C2\C(=O)NC(=S)N(c3ccc(Cl)cc3)C2=O)cc1Br | 73* | .
Cc1ccc(NC(=O)c2sc3nc(-c4ccncc4)ccc3c2N)cc1 | -53* | 106

# Other compounds:
# Field names: A = HCMV NEC inh; B = GIV-Gai inh; C = Sa growth inh; D = Sa growth inh second temp
CCOC(=O)c1c(C)[nH]c(C)c1S(=O)(=O)N(C)CC(=O)Nc1ccc(C)c(N(C)C)c1
  A: .	B: 104	C: 96	D: 90
Cc1ccc(S(=O)(=O)NCC(c2ccco2)N2CCOCC2)cc1 (stereo not given)
  A: .	B: 96	C: 97	D: 94
O=S(=O)(c1ccc(OCC(O)CN2CCCCC2)cc1)N1CCOCC1 (stereo not given)
  A: -2	B: .	C: 99	D: 88
CCOC(=O)c1c(NC(=O)COc2ccc(Cl)cc2)sc(C(=O)Nc2ccccc2F)c1C
  A: -5	B: 110	C: .	D: .
O=C1OCCC1Sc1nc(-c2ccccc2)cs1 (stereo not given)
  A: -10	B: 102	C: 108	D: 99
O=C(CC(c1ccccc1)c1cc(Cl)ccc1O)NCCCN1CCOCC1 (stereo not given)
  A: 0	B: 105	C: 122	D: 79
CCn1ccc2cc(S(=O)(=O)N3CCCN(C(=O)Nc4ccccc4F)CC3)ccc21
  A: .	B: 102	C: 82	D: 83
NC(=O)C1CCN(C(=O)NC2CC(=O)N(c3ccc(Cl)cc3)C2)CC1 (stereo not given)
  A: -8	B: 99	C: 93	D: 89
COc1ccc(OC)c(CNC(=O)C2COc3ccccc3C2)c1 (stereo not given)
  A: .	B: 98	C: 97	D: 95
COc1ccc(N2Cc3cccc(C(=O)Nc4ccc(C)c(C)c4)c3C2=O)cc1
  A: -47	B: 101	C: 99	D: 93
CCn1c2ccccc2c2nnc(SCC(=O)Nc3nccs3)nc21
  A: -30	B: 96	C: 93	D: 85
COC(=O)c1c(C)oc2ccc(N(C(=O)c3ccncc3)S(=O)(=O)c3c(C)cc(C)cc3C)cc12
  A: 3	B: 103	C: 101	D: 105
Cc1cccc(C)c1NC(=O)CNc1ccccc1
  A: -8	B: 102	C: 105	D: 77
O=C(c1ccc(F)cc1)N1CCCc2ccccc21
  A: -9	B: 110	C: 97	D: 95
O=S(=O)(c1ccc(F)cc1)N1CCN(S(=O)(=O)c2cccs2)CC1
  A: -26	B: 106	C: 113	D: 103
O=C(Nc1ccc(S(=O)(=O)c2ccc(NC(=O)c3ccco3)cc2)cc1)c1ccco1
  A: -22	B: 99	C: 86	D: 73
CCCCOc1cccc(OCCCC)c1Nc1cc(C)on1
  A: 2	B: 112	C: 91	D: 92
CCC(=O)Nc1nc(-c2ccc3c(c2)N(C)C(=O)CO3)cs1
  A: 11	B: 100	C: .	D: .
N#Cc1ccc(COC(=O)CCC(=O)c2ccc(F)cc2)cc1
  A: -11	B: .	C: 125	D: 81
c1coc(-c2cc(-c3nc4c5ccccc5ncn4n3)n[nH]2)c1
  A: -11	B: 110	C: 81	D: 33
Cc1cc(C)cc(S(=O)(=O)Nc2cccc(-c3ccc(N4CCCCC4)nn3)c2)c1
  A: -30	B: 100	C: .	D: .
COc1ccc(S(=O)(=O)Nc2cccc(-c3ccc(N4CCCCCC4)nn3)c2)cc1
  A: .	B: 98	C: 118	D: 98
C/C(N)=C(/C#N)C(=O)CSc1nnc(-c2cccnc2)n1C1CCCCC1C (stereo not given)
  A: 9	B: .	C: 89	D: 91
CCCCN(C)S(=O)(=O)c1ccc2c(c1)CC(C)N2C(C)=O (stereo not given)
  A: -17	B: 100	C: 95	D: 85
O=c1[nH]c2ccccc2nc1C(=S)N1CCOCC1
  A: -55	B: .	C: 93	D: 87
O=C(O)CC1C(=O)NCCN1C1Cc2ccccc2C1 (stereo not given)
  A: -11&-6	B: 102&102	C: 100	D: 94
COc1ccc(S(=O)(=O)N2CCN=C2N2CCN(c3ccccc3Cl)CC2)cc1OC
  A: -11	B: 108	C: .	D: .
NC(=S)N/N=C/c1nc2ccccc2n1Cc1ccccc1
  A: -50	B: 97	C: 72	D: 35
CCCN(C)S(=O)(=O)c1ccc(I)cc1
  A: -9	B: 104	C: 98	D: 108
NCCC1CCCO1 (stereo not given)
  A: 10	B: .	C: 110	D: 98
CSc1sc(-c2nc(C(C)(C)C)cs2)c2c1C(=O)CCC2
  A: -12	B: 97	C: 105	D: 91
O=C(Cn1nc(Cc2ccncc2)c2ccccc2c1=O)NCCc1ccc(Cl)cc1
  A: 6	B: 101	C: 105	D: 85
COc1cccc(N2CCN(C(=O)c3cnn(C(C)(C)C)c3C3CCN(C(=O)OC(C)(C)C)CC3)CC2)c1
  A: .	B: 105	C: 91	D: 92
CC(OC(=O)Cn1ccc(C(F)(F)F)n1)c1nc2ccccc2c(=O)[nH]1 (stereo not given)
  A: -17	B: .	C: 78	D: 91
COc1ccc(-c2cc(C(F)(F)F)nc(SCC(=O)N3CCCCC3)n2)cc1
  A: -6	B: 105	C: 110	D: 91
CCOC(=O)c1cnc(COc2ccccc2Cl)[nH]c1=O
  A: 0	B: 99	C: 108	D: 79
